Screens from PubChem.
MLL AF4-AF9 inh: MLL-AF4/AF9 protein interaction inhibition | P42568 | AlphaScreen, biotin-AF4 peptide binding to FLAG-AF9 | inhibition, % at 10 µM | actives 0.47% (n = 350,000) | AID 651704;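 active means every replicate reaching a set inhibition limit, whatever the replicate mean, cut at about 25% in these data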;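 further: 0% = plate neutral control median and 100% = total signal loss; the record names both 10 and 1 µM as test concentration; the first replicate is given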
Target sequence (P42568 whole entry, looked up): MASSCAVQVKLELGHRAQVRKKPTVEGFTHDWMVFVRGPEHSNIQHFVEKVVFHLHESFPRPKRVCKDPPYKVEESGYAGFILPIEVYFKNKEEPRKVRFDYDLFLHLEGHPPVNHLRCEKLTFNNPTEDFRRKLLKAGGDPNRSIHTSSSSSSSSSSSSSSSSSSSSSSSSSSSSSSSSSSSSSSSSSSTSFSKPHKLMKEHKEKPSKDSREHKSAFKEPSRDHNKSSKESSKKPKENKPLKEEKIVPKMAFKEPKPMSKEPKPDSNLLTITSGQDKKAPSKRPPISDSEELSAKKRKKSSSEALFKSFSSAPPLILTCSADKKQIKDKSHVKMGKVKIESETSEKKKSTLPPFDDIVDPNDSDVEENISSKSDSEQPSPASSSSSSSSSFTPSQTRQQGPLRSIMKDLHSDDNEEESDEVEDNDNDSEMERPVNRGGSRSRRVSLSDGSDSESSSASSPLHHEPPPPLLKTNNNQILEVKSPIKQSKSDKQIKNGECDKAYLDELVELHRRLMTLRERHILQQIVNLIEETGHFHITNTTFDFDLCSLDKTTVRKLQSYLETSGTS
FGF22 binding: FGF22 (human) thermal shift binding | Q9HCT0 | AID 651658 | recombinant FGF22 thermal shift, SYPRO orange fluorescence; percent of sucrose octasulfate shift, DMSO zero | actives 1.5% (n = 340,000) | calls only at 9.99 µM;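 active means melting point raised past a set limit in the mean and every replicate; three in four hits are not shown here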
Target sequence (Q9HCT0 whole entry, looked up): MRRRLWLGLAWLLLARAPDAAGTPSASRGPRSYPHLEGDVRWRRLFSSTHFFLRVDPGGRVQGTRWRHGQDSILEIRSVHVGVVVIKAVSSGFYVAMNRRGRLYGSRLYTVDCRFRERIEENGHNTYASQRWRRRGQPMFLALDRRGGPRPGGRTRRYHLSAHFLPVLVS
RanGTP-Impb inh: inhibitors of RanGTP-importin-beta interaction, primary screen, biochemical, FRET, CFP-Ran, YFP-importin-beta, homogeneous; cell-free CFP-Ran/YFP-importin-beta FRET ratio; inhibition, % (concentration not given with the values); actives 1.1% (n = 300,000);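 active means most replicates above 15%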;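 further: 0% = DMSO wells and 100% = Ran loaded with GDP instead of GTP; wells of about 40 µL received 100 nL stock; the first replicate is given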
E coli growth: blocks Escherichia coli growth. OD600, 23 h; stronger effect = lower value. OD600 absorbance (test concentration not listed). actives 0.21% (n = 330,000);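 active means OD600 absorbance below the run mean of sample wells minus 3.6 SD, in any replicate, cut at about 0.56 in these data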;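 further: stock transfer was 300 nL into about 60 µL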
Active calls of the source: *; i = inactive; x = no result given; & = joins results of further samples.

MLL AF4-AF9 inh | FGF22 binding | RanGTP-Impb inh | E coli growth | Molecule
1.3 | x | x | x | Cc1ccccc1-c1ccc([C@@H]2[C@H]3CN(S(C)(=O)=O)CC(=O)N3[C@H]2CO)cc1
-3.1 | x | x | x | COc1ccc(-c2ccc([C@H]3[C@H](CO)N4C(=O)CN(C(=O)c5ccccc5)C[C@@H]34)cc2)cc1
5.4 | x | x | x | C/C=C/c1ccc2c(c1)O[C@@H](CN(C)C(=O)Nc1ccc(F)cc1)[C@H](C)CN([C@H](C)CO)S2(=O)=O
-2.8&-2.0 | x | x | x | COc1cccc(-c2ccc(C3[C@H]4CNC[C@@H]3N4C(=O)Nc3ccccc3Cl)cc2)c1 (some centres not stated)
0.5 | x | x | x | O=C(N[C@@H]1CC[C@H](CCNS(=O)(=O)c2cccc(Cl)c2)O[C@H]1CO)c1ccccc1
-5.4 | x | x | x | C[C@@H]1CCCCO[C@H](CN(C)S(=O)(=O)c2ccc(Cl)cc2)[C@@H](C)CN([C@@H](C)CO)C(=O)c2cc(NC(=O)Nc3cccc4ccccc34)ccc2O1
0.3 | x | x | x | O=C(c1ccccc1)N1CC(=O)N2[C@H](CO)[C@H](c3ccc(-c4ccccc4)cc3)[C@@H]2C1
-2.3 | x | x | x | CCCNC(=O)C[C@@H]1C[C@H]2c3cc(NC(=O)C4CCC4)ccc3O[C@H]2[C@@H](CO)O1
-3.7 | x | x | x | COCC(=O)N1CC(=O)N2[C@@H](CO)[C@@H](c3ccc(-c4cccnc4)cc3)[C@@H]2C1
-4.0 | x | x | x | C[C@@H]1CN([C@@H](C)CO)C(=O)c2cc(NC(=O)c3ccncc3)ccc2O[C@H]1CN(C)Cc1ccc2c(c1)OCO2
x | i | 0.9 | x | CCOc1ccc(C(=O)N/N=C/c2c(C)[nH]c(=O)[nH]c2=O)cc1
x | i | 4.5 | x | CC(=O)Nc1ccc(SC[C@H](c2ccccc2)N2CCN(CCc3ccccc3)CCC2=O)cc1
x | x | x | 0.724 | COc1ccc(C2Sc3ccccc3N(CCN(C)C)C(=O)C2OC(C)=O)cc1 (configuration not stated)
x | x | x | 0.68 | C#CCOCCOCCOCCNc1nc(N2CCN(C(=O)C(C(C)O)n3cc(C(N)CCCCN)nn3)CC2)nc(N2CCN(C(=O)C(C(C)O)n3cc(C(N)CCCCN)nn3)CC2)n1 (configuration not stated)
x | x | x | 0.712 | CCN(CC)C(=O)c1[nH]cnc1C(=O)NC(CCCCNC(=O)OC(C)(C)C)C(=O)OC(C)(C)C (configuration not stated)
x | x | x | 0.671 | COc1ccc(-c2ccc3c(c2)S(=O)(=O)c2cccc(C(=O)NCC4CCCO4)c2C3=O)cc1OC (configuration not stated)
x | x | x | 0.65 | Cc1noc(C)c1NC(=O)Nc1ccc2c(c1)CC(=O)N(C(C)CO)CC(C)C(CN(C)CC1CCCCC1)O2 (configuration not stated)
x | x | x | 0.656 | CC(C)CC(CO)N1CCN(Cc2ccc(Br)cc2)CCC1=O (configuration not stated)
x | x | x | 0.679 | COc1ccc(C2=CC(=O)CC(c3ccc(OC)c(OC)c3)C2)cc1 (configuration not stated)
x | x | x | 0.697 | O=C(O)C1=CC(c2cccs2)CC(OCCCCO)O1 (configuration not stated)
x | x | x | 0.71 | COc1ccc(N=C2SC(=Cc3cc(C)n(C)c3C)C(=O)N2C)cc1
x | x | x | 0.676 | CCCCNC(=O)C1CC=CC2CCN(C3CC3)C(=O)C21 (configuration not stated)
x | x | x | 0.635 | CCOC(=O)C=C1CN(Cc2cc(OC)c(OC)c(OC)c2)S(=O)(=O)c2ccccc21
x | x | x | 0.684 | CCCCCC(=O)Nc1cccc(C2=NOC3(C2)CC(C(N)=O)N(C(=O)c2cc([N+](=O)[O-])cc([N+](=O)[O-])c2C)C3)c1 (configuration not stated)
x | x | x | 0.73 | CCOC1OC(C(=O)NCc2ccccc2)=CC(c2csc3ccccc23)C1CCCO (configuration not stated)
x | x | x | 0.694 | CC(NC(=O)c1[nH]cnc1C(=O)Nc1ccc(Cl)cc1)C(=O)OC(C)(C)C (configuration not stated)
x | x | x | 0.693 | CC1CN(C(C)CO)C(=O)c2cccc(NC(=O)Nc3ccc(C(F)(F)F)cc3)c2OC1CN(C)S(=O)(=O)c1ccc(Cl)cc1 (configuration not stated)
x | x | x | 0.623 | COc1ccc(S(=O)(=O)Nc2cccc3c2OC(CN(C)C(=O)Nc2c(C)noc2C)C(C)CN(C(C)CO)C3=O)cc1 (configuration not stated)
x | x | x | 0.679 | Cc1cc(C)c(NC(=O)C=CC(=O)O)c([N+](=O)[O-])c1
x | x | x | 0.663 | O=C(C=Cc1ccccc1Cl)Nc1ccncc1

Brought forward from above: 3 compounds, followed by the next part.
MLL AF4-AF9 inh | FGF22 binding | RanGTP-Impb inh | E coli growth | Molecule
x | x | x | 0.623 | COc1ccc(S(=O)(=O)Nc2cccc3c2OC(CN(C)C(=O)Nc2c(C)noc2C)C(C)CN(C(C)CO)C3=O)cc1 (configuration not stated)
x | x | x | 0.679 | Cc1cc(C)c(NC(=O)C=CC(=O)O)c([N+](=O)[O-])c1
x | x | x | 0.663 | O=C(C=Cc1ccccc1Cl)Nc1ccncc1
x | x | x | 0.686 | C#CCOCCOCCOCCNc1nc(N2CCN(C(=O)C(Cc3ccc(O)cc3)n3cc(C(N)CC(C)C)nn3)CC2)nc(N2CCN(C(=O)C(C(C)CC)n3cc(C(N)CO)nn3)CC2)n1 (configuration not stated)
x | x | x | 0.624 | c1ccc2cc(CCOC3CCCCO3)ncc2c1 (configuration not stated)
x | x | x | 0.678 | CCN(CC)c1ccc(C=C2NC(=O)NC2=O)cc1
x | x | x | 0.674 | C#Cc1ccc(C2C=C(C(=O)NCc3ccccc3)OC(OCC)C2CCCO)cc1 (configuration not stated)
x | x | x | 0.606 | O=C1C=C(c2ccc(Oc3ccccc3)cc2)CC(c2ccc(Cl)cc2)C1 (configuration not stated)
x | x | x | 0.663 | C#CCOCCOCCOCCNc1nc(N2CCN(C(=O)CCCCCCCCCCNC(=O)C(CCC(=O)O)n3cc(CCCCCN)nn3)CC2)nc(N2CCN(C(=O)CCCCCCCCCCNC(=O)C(C(C)O)n3cc(C)nn3)CC2)n1 (configuration not stated)
x | x | x | 0.694 | COc1ccc(-c2ccc(C3C4C=CCC(C)C4C(=O)N3Cc3ccccc3)c(F)c2)cc1C (configuration not stated)
x | x | x | 0.695 | C=CCOC(=O)C(=Cc1cccc2ccccc12)NC(=O)c1ccccc1
x | x | x | 0.664 | CC1CN(C(C)CO)C(=O)c2cc(NC(=O)CCC(F)(F)F)ccc2OC1CN(C)S(C)(=O)=O (configuration not stated)
x | x | x | 0.699 | CCN1C(=O)C2C(c3ccc(-c4ccc(F)cc4)c(OC)c3)N[C@@](Cc3ccccc3)(C(=O)OC)C2C1=O (some centres not stated)
x | x | x | 0.687 | CC(C)CC1NC(=O)C(Cc2ccc(O)cc2)NC(=O)C(CCC(N)=O)NC(=O)c2cc([N+](=O)[O-])cc(I)c2NCCC(C(N)=O)NC1=O (configuration not stated)
x | x | x | 0.715 | COc1ccc(C2C3C(=O)N(C(C)(C)C)C(=O)C3[C@]3(Cc4ccccc4)C(=O)N(c4cccc(Br)c4)C(=O)N23)cc1 (some centres not stated)
x | x | x | 0.703 | C[C@]1(C(=O)O)C=CC(Cc2ccccc2)N1C(=O)c1ccccc1 (some centres not stated)
x | x | x | 0.706 | N#CC(=C1CCCN1)c1ccc2ccccc2n1
x | x | x | 0.677 | CN1CC2C3C(=O)N(C)C(=O)C3[C@](Cc3ccccc3)(C1=O)N2C(=O)c1ccc(F)cc1 (some centres not stated)
x | x | x | 0.64 | O=S1(=O)CCOCC(CC2CCCCC2)N1Cc1ccccc1Br (configuration not stated)
x | x | x | 0.643 | CCOC1OC(C(N)=O)=CC(C)C1CCCO (configuration not stated)
x | x | x | 0.681 | CC1CN(C(C)CO)C(=O)c2cc(NS(=O)(=O)c3cn(C)cn3)ccc2OC1CN(C)C(=O)Nc1ccccc1 (configuration not stated)
x | x | x | 0.64 | CC(CCN1C(N(C)C)=NCC1C)c1ccccc1 (configuration not stated)
x | x | x | 0.647 | O=C(O)CC1c2ccc(C(F)(F)F)cc2S(=O)(=O)N1C1CCCCC1 (configuration not stated)
x | x | x | 0.633 | CCN1C(=O)C2C(c3ccc(SC4CCCCC4)c(OC)c3)N3CCC[C@@]3(C(=O)OC)C2C1=O (some centres not stated)
x | x | x | 0.647 | CCCC=C(CCC)C(NC(=O)OCC(C)C)c1ccc(C(=O)OC)cc1 (configuration not stated)
x | x | x | 0.686 | CC(CN1C(=O)C(=O)NCC1Cc1ccc(O)cc1)NC(=O)Cc1ccccc1 (configuration not stated)
x | x | x | 0.698 | Cc1ccc(NC(=O)c2nc[nH]c2C(=O)NC(CCCCNC(=O)OC(C)(C)C)C(=O)OC(C)(C)C)cc1 (configuration not stated)
x | x | x | 0.678 | CC(=O)Nc1ccc(SCC(Cc2ccccc2)N2CCN(CCc3ccccc3)CCC2=O)cc1 (configuration not stated)
x | x | x | 0.682&0.748 | CCN1C(=O)C2C(c3ccc(-c4ccc(Cl)c(Cl)c4)c(OC)c3)N3CCCC[C@@]3(C(=O)OC)C2C1=O (some centres not stated)
x | x | x | 0.699 | CC(C(=O)NCC1CC1)C1C[C@@]1(C)C(NC(=O)OCc1ccccc1)c1ccccc1 (some centres not stated)
x | x | x | 0.694 | CC[C@@]12C(=O)N(c3cccc(F)c3)C(=O)N1C(c1ccc(OC)cc1)C1C(=O)N(C(C)(C)C)C(=O)C12 (some centres not stated)
x | x | x | 0.7 | COc1ccc(C2C=CCN(C(=O)c3ccc(C)cc3)C(Cc3ccccc3)C(=O)N2Cc2ccc(F)cc2)cc1 (configuration not stated)
x | x | x | 0.688&0.706 | O=C(NC1CC1)C1=CC(c2ccc(Br)cc2)CC(OCc2ccc(CO)cc2)O1 (configuration not stated)

Retrieved by structure from the entries so far:
MLL AF4-AF9 inh | FGF22 binding | RanGTP-Impb inh | E coli growth | Molecule
-5.4 | x | x | x | C[C@@H]1CCCCO[C@H](CN(C)S(=O)(=O)c2ccc(Cl)cc2)[C@@H](C)CN([C@@H](C)CO)C(=O)c2cc(NC(=O)Nc3cccc4ccccc34)ccc2O1
x | x | x | 0.699 | CCN1C(=O)C2C(c3ccc(-c4ccc(F)cc4)c(OC)c3)N[C@@](Cc3ccccc3)(C(=O)OC)C2C1=O (some centres not stated)

Whole records, looked up by structure. Screens in order: MLL AF4-AF9 inh	FGF22 binding	RanGTP-Impb inh	E coli growth
`CCN(CC)c1ccc(C=C2NC(=O)NC2=O)cc1` as listed: x	x	x	0.678
`C#Cc1ccc(C2C=C(C(=O)NCc3ccccc3)OC(OCC)C2CCCO)cc1` (configuration not stated) as listed: x	x	x	0.674

(list continues)
MLL AF4-AF9 inh | FGF22 binding | RanGTP-Impb inh | E coli growth | Molecule
x | x | x | 0.647 | C=CS(=O)(=O)N(Cc1ccccc1Br)C(CO)CC(C)C (configuration not stated)
x | x | x | 0.668 | C[C@@]12C(=O)N(Cc3ccco3)CC(=O)N1C1c3cc(Cl)ccc3OCC1C2c1ccccc1 (some centres not stated)
x | x | x | 0.719 | CCN1C(=O)C2C(c3ccc(C)cc3)N3C(=O)N(c4cccc(Cl)c4)C(=O)[C@@]3(Cc3ccccc3)C2C1=O (some centres not stated)
x | x | x | 0.725 | CC1CN(C(C)CO)C(=O)Cc2cc(NC(=O)CCC(F)(F)F)ccc2OC1CN(C)S(C)(=O)=O (configuration not stated)
x | x | x | 0.657 | COC(=O)CN1C(=O)C2C(c3ccc(C)o3)N3C(=O)CN(Cc4ccc(-c5ccccc5)cc4)C(=O)[C@@]3(C)C2C1=O (some centres not stated)
x | x | x | 0.675&0.716 | O=C(C1=CC(c2ccccc2)CC(OCCCCO)O1)N1CCOCC1 (configuration not stated)
x | x | x | 0.713 | COC(=O)C1CC2CCC(O)CC2N1Cc1ccccc1OC(=O)c1cccs1 (configuration not stated)
x | x | x | 0.669 | CC(=O)[C@@]1(O)CCC2C3CC(C)C4=CC(=O)CC[C@]4(C)C3CC[C@@]21C (some centres not stated)
x | x | x | 0.684 | O=C(Nc1ccccc1)C1=CC(C2CC2)CC(OCc2ccc(CO)cc2)O1 (configuration not stated)
x | x | x | 0.695 | CCCCCCCCN1C(CC(=O)OCC)c2ccc(C(F)(F)F)cc2S1(=O)=O (configuration not stated)
x | x | x | 0.736 | COC(=O)[C@@]1(Cc2ccc(F)cc2)C2c3cc(C(=O)N4CCCC4)n(Cc4ccc(C(F)(F)F)nc4)c3CC2CN1C(=O)c1ccccc1 (some centres not stated)
x | x | x | 0.666 | Cc1cccc(NC(=O)NC(C)C(=O)O)c1 (configuration not stated)

Some of the compounds tested; count on the stated rates, not on these rows.
